Screening results: PubChem, National Center for Advancing Translational Sciences (NCATS)
D2 PAM – human D2 receptor positive allosteric modulation | DiscoveRx D2 beta-arrestin cells, luminescence, 90 min; 100% = 57 uM dopamine signal | P14416 | 0.23% of 360,000 active | potentiation, % (test concentration not listed) | AID 624464; active = potentiation of 50% or more; inconclusive = 30% to 50%; inactive = 30% or less;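 also: compound concentration not given in the record; tested on top of an EC20 dose of dopamine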
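PathHunter beta-arrestin assay in DiscoveRx D2 cells. Compounds were added with an EC20 of dopamine (50 nM final) for 90 min at 37 deg C. Luminescence was read 1 h after detection reagent, with 57 uM dopamine as the EC100 control.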
TRPML1 ag – activates the human TRPML1 channel. activation, % (no concentration beside the values). Q9GZU1. 0.12% of 410,000 active. TRPML1-expressing cells, Ca2+ dye fluorescence, FDSS; host cell line not named in the record; reference of the full effect not given here; in the data active = activation above about 50%; inconclusive = about 30% to 50%; inactive = below about 30%; also: 0% is about no effect; the text of the record puts the active cut at 80%
Target sequence (Q9GZU1 whole entry, looked up): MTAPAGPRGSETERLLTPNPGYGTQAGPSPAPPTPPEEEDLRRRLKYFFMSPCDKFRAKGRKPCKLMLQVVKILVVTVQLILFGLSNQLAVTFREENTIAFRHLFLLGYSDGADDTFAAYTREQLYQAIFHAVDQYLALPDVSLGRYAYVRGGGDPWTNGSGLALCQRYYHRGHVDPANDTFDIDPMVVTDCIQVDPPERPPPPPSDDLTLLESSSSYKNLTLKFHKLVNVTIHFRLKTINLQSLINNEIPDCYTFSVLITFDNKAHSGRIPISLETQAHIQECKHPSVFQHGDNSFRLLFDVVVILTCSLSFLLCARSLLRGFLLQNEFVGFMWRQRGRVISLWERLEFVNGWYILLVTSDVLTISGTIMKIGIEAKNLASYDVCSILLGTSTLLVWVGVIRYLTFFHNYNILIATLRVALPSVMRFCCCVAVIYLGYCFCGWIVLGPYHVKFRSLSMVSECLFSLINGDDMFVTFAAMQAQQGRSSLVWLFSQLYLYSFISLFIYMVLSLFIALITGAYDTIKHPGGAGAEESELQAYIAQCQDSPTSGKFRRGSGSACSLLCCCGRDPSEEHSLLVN
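Tetracycline-induced TRPML1-DL cells are seeded and incubated overnight before loading with a no-wash Ca2+ dye and quencher. Agonist activity is taken from the 110 s fluorescence read following compound pin-transfer on an FDSS, before EC80 54-4 challenge.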
CtBP-E1A inh – blocks the CtBP interaction with E1A | AlphaScreen GST-E1A/His-CtBP binding, 1536-well; hits give low values; control for the full effect not named in the record | activity change, % (no concentration beside the values) | 0.49% of 340,000 active; in the data active means activity change below about -65%; inconclusive means about -30% to -65%; inactive means above about -30%; also: % is scaled to controls: 0 for no effect and ±100 for the full control effect; compound concentration not given in the record
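AlphaScreen with 125 nM GST-E1A and 125 nM His-CtBP (5X stocks) in Tris pH 8.0, 300 mM NaCl, BSA, Tween 20, TCEP. Compounds preincubated 2 h at 37 deg C, then glutathione donor/nickel acceptor beads added for 1 h at 37 deg C in dark.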
PINK1 expr mod – modulators of PINK1 expression. PINK1 immunofluorescence, high-content cytometry, 24 h. Potency, µM (highest dose often 76.6 µM), for inactives: top-dose activation (PINK1 increase), most hits filed as activators. 0.2% of 410,000 active. AID 624263; active = well fitted activation curve with a large enough effect; inconclusive = small, poorly fitted or top-dose-only effect; inactive = flat fitted curve, though single readings scatter; cell line not stated here;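 also: potency is read from the fitted curve at half-maximal effect; % of control where 0% means no effect; nearly all actives have a fitted effect of over 65% in size; a mitochondrial uncoupler was the plate control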
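Cells are seeded, rested 12 hours, then given compound at five concentrations or DMSO for 24 hours. After fixation, blocking and antibody staining, PINK1 amount and mitochondrial localization are scored; CCCP serves as control.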
D2 agonist – agonists of human D2 dopamine receptor (beta-arrestin); DiscoveRx PathHunter D2 beta-arrestin, luminescence, 90 min; 100% = 57 uM dopamine signal; 0.084% of 360,000 active; P14416; AID 624465; activation, % (concentration not given with the values); in the data active = activation above about 40%; inconclusive = about 15% to 40%; inactive = below about 15%; also: compound concentration not given in the record; the text of the record calls up to 30% inactive
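Agonist mode: compounds alone added to overnight-plated D2 PathHunter cells for 90 min at 37 C, with 57 uM final dopamine (EC100) defining full response. Beta-arrestin recruitment detected by chemiluminescent reagent, read after 1 h at ambient temperature.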
Six1-Eya2 inh – Six1/Eya2 interaction inhibition; Q15475+O00167; AlphaScreen GST-Six1/His-Eya2 binding, biochemical; hits give low values; control for the full effect not named in the record; activity change, % (test concentration not listed); 0.56% of 360,000 active; in the data active = activity change below about -65%; inconclusive = about -30% to -65%; inactive = above about -30%; also: % is scaled to controls: 0 for no effect and ±100 for the full control effect; compound concentration not given in the record
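AlphaScreen luminescence read after one hour at 37 °C in darkness. Pin-transferred compounds met GST-Six1 and His-Eya2 protein (5X stock 250 nM/500 nM) plus glutathione donor and Ni-chelate acceptor beads (5X, 50 ug/mL).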
* = called active by the depositor; · = not tested or not shown; & = joins results of further samples; [ ] = another dose, or the depositor's remark.

Preview:
#1 COCC(=O)N1CCC(Oc2ccc(C(=O)NCCCC3CCCC3)cc2)CC1
#2 CCCCSc1cc(C)nc2ncnn12

| compound no. | 1 | 2 |
| --- | --- | --- |
| D2 PAM | -23 | 3 |
| TRPML1 ag | 0.4 | -0.9 |
| CtBP-E1A inh | 4 | 1 |
| PINK1 expr mod | -0.1% | 0.7% |
| D2 agonist | -0.7 | -3.1 |
| Six1-Eya2 inh | 8 | 1 |

Results, from the start:
#1 COCC(=O)N1CCC(Oc2ccc(C(=O)NCCCC3CCCC3)cc2)CC1
#2 CCCCSc1cc(C)nc2ncnn12
#3 O=C(CCC(=O)OCc1ccc(C(=O)Oc2ccc(Cl)cc2)cc1)Nc1ccccc1
#4 Cc1cc(C(=O)N2CCN(c3ccccn3)CC2)c(C)o1
#5 COc1cc(CN2CCN(C(=O)CC(C)C)CC2)c([N+](=O)[O-])cc1OC
#6 CC[C@]1(C(=O)OC)[C@H]2C(=O)N(C)C(=O)[C@H]2[C@H]2CN=C(SCc3ccc(C(=O)OC)cc3)N21
#7 COc1ccccc1C1C([N+](=O)[O-])=CC([N+](=O)[O-])=CN1C (stereo not given)
#8 Cc1cnc(C(=O)NCCc2ccc(Cl)cc2)cn1

| compound no. | 1 | 2 | 3 | 4 | 5 | 6 | 7 | 8 |
| --- | --- | --- | --- | --- | --- | --- | --- | --- |
| D2 PAM | -23 | 3 | 3 | 6 | -1 | -11 | -2 | -8 |
| TRPML1 ag | 0.4 | -0.9 | 0.0 | 0.2 | 0.0 | 0.8 | 4.0 | 0.9 |
| CtBP-E1A inh | 4 | 1 | 14 | 9 | 6 | 0 | 3 | -5 |
| PINK1 expr mod | -0.1% | 0.7% | 6.3% | 9.8%[38.3 µM] | 0.0% | -0.7% | 4.7% | 2.0% |
| D2 agonist | -0.7 | -3.1 | -1.6 | -2.8 | 8.0 | -1.0 | 3.1 | -0.7 |
| Six1-Eya2 inh | 8 | 1 | 17 | -2 | 11 | 16 | -4 | -16 |

Full records as entered above.
COc1cc(CN2CCN(C(=O)CC(C)C)CC2)c([N+](=O)[O-])cc1OC reads D2 PAM: -1; TRPML1 ag: 0.0; CtBP-E1A inh: 6; PINK1 expr mod: 0.0%; D2 agonist: 8.0; Six1-Eya2 inh: 11
COc1ccccc1C1C([N+](=O)[O-])=CC([N+](=O)[O-])=CN1C (stereo not given) reads D2 PAM: -2; TRPML1 ag: 4.0; CtBP-E1A inh: 3; PINK1 expr mod: 4.7%; D2 agonist: 3.1; Six1-Eya2 inh: -4

Later entries:
#9 CCOC(=O)C(C(=O)OCC)[C@@H]1CS(=O)(=O)C[C@H]1C(C(=O)OCC)C(=O)OCC
#10 CC(=O)Nc1ccc(NC(=O)CSc2nnc(C)c(=O)[nH]2)cc1
#11 O=C(NCc1ccccc1)NS(=O)(=O)c1ccccc1Cl
#12 O=C(NNC(=O)c1ccc(Cl)nc1)c1ccncc1
#13 CCCCC1=CC2=C(c3ccco3)C(=O)C(C)(OC(=O)c3ccc(OC)cc3)C(=O)C2=CN1c1ccccc1 (stereo not given)
#14 CCSc1nnc(CNC(=O)C23CC4CC(CC(C4)C2)C3)n1Cc1ccccc1
#15 COc1ccc(NC(=O)C2C3CCC(O3)C2C(=O)O)cc1OC (stereo not given)
#16 O=C(Cc1cccs1)N(Cc1cccs1)C1(C(=O)NC2CCCCC2)CCCCC1

| compound no. | 9 | 10 | 11 | 12 | 13 | 14 | 15 | 16 |
| --- | --- | --- | --- | --- | --- | --- | --- | --- |
| D2 PAM | -7 | -2 | -1 | -4 | -5 | -3 | -2 | -7 |
| TRPML1 ag | -0.7 | 0.3 | -0.6 | 0.3 | 1.9 | 0.3 | -0.2 | 3.2 |
| CtBP-E1A inh | 9 | 3 | 3 | -1 | · | -7 | 6 | -2 |
| PINK1 expr mod | -1.8% | 1.8% | 0.9%[38.3 µM] | -1.0% | 10% | 1.9% | 3.3% | 1.6% |
| D2 agonist | -2.3 | -5.1 | -0.6 | -2.3 | -0.8 | -1.7 | -4.9 | -6.5 |
| Six1-Eya2 inh | 8 | 7 | 0 | 7 | -26 | 0 | -1 | -1 |

Looked up by structure from above, four records:
#15 COc1ccc(NC(=O)C2C3CCC(O3)C2C(=O)O)cc1OC (stereo not given)
#13 CCCCC1=CC2=C(c3ccco3)C(=O)C(C)(OC(=O)c3ccc(OC)cc3)C(=O)C2=CN1c1ccccc1 (stereo not given)
#9 CCOC(=O)C(C(=O)OCC)[C@@H]1CS(=O)(=O)C[C@H]1C(C(=O)OCC)C(=O)OCC
#12 O=C(NNC(=O)c1ccc(Cl)nc1)c1ccncc1

| compound no. | 15 | 13 | 9 | 12 |
| --- | --- | --- | --- | --- |
| D2 PAM | -2 | -5 | -7 | -4 |
| TRPML1 ag | -0.2 | 1.9 | -0.7 | 0.3 |
| CtBP-E1A inh | 6 | · | 9 | -1 |
| PINK1 expr mod | 3.3% | 10% | -1.8% | -1.0% |
| D2 agonist | -4.9 | -0.8 | -2.3 | -2.3 |
| Six1-Eya2 inh | -1 | -26 | 8 | 7 |

Going on with the list:
#17 O=C(c1ccc(Cl)cc1Cl)N1CCc2ccccc21
#18 Cc1cccc(-c2nc(CS(=O)CC(=O)NCCc3ccccc3)c(C)o2)c1 (stereo not given)
#19 CCc1ccc(N2CN(Cc3ccco3)CNC2=S)cc1
#20 COc1cc(Cl)c(C)cc1NC(=O)CN(C)Cc1cccc(OC)c1OC
#21 O=[N+]([O-])c1ccc(Cl)c(S(=O)(=O)Nc2cccc(-c3ccc(N4CCOCC4)nn3)c2)c1
#22 NC(=O)COC(=O)c1ccc2c(c1)S(=O)(=O)c1ccccc1C2=O
#23 C[C@H](NC(=O)c1nc[nH]c1C(=O)NCc1ccccc1)C(=O)OC(C)(C)C
#24 COc1ccc(Cl)cc1NC(=O)CSc1nnc(C2CC2)n1N

| compound no. | 17 | 18 | 19 | 20 | 21 | 22 | 23 | 24 |
| --- | --- | --- | --- | --- | --- | --- | --- | --- |
| D2 PAM | -5 | -10 | -10 | -3 | 17 | 29 | -4 | -8 |
| TRPML1 ag | -0.8 | -1.4 | -0.2 | 3.5 | 2.4 | -0.1 | 0.4 | 0.4 |
| CtBP-E1A inh | 1 | -3 | 2 | 0 | -7 | -2 | -2 | 1 |
| PINK1 expr mod | 1.7% | -0.8% | -0.8% | 1.5% | -0.5% | 2.9% | 3.7% | -2.5% |
| D2 agonist | -2.3 | 2.6 | 2.0 | 1.1 | 2.5 | 0.9 | -1.9 | -1.8 |
| Six1-Eya2 inh | 12 | 0 | -8 | 2 | -17 | -6 | -3 | -1 |

#25 O=C(C[n+]1ccc(C(=O)N/N=C/c2ccc(Cl)cc2Cl)cc1)c1ccccc1
#26 COc1ccc(OC)c(N(CC(=O)N2CCC(C)CC2)S(=O)(=O)c2ccccc2)c1
#27 CN(C)c1cccc(CNC(=O)c2csc([C@@H]3C[C@H](O)[C@@H](CO)O3)n2)c1
#28 COc1cc(-c2noc(C)c2/C=C/c2cccc([N+](=O)[O-])c2)cc(OC)c1OC
#29 O=S1(=O)CCOCCCN1Cc1ccccc1F
#30 COc1cc(/C=C/C(=O)OCC(=O)Nc2ccc3c(c2)OCO3)ccc1O
#31 COc1ccc(CN2[C@@H](CC(C)=O)c3cc(C(F)(F)F)ccc3S2(=O)=O)cc1
#32 CC1(C)O[C@@H]2[C@H](O1)[C@@H](CO)O[C@H]2n1cc(Br)c(=O)[nH]c1=O

| compound no. | 25 | 26 | 27 | 28 | 29 | 30 | 31 | 32 |
| --- | --- | --- | --- | --- | --- | --- | --- | --- |
| D2 PAM | -29 | 2 | -3 | -3 | -11 | -3 | -1 | 0 |
| TRPML1 ag | -0.4 | 0.3 | -0.4 | 0.1&-0.3 | -0.1&-0.3 | 0.2 | -0.2&-0.5 | -0.4 |
| CtBP-E1A inh | 6 | 6 | -18 | · | -18 | -11 | 6 | -10 |
| PINK1 expr mod | 0.6%[38.3 µM] | -4.0%[38.3 µM] | 0.7% | 0.4% | 0.8% | 8.7% | -0.5% | -1.5% |
| D2 agonist | -2.4 | 0.9 | -7.0 | 2.9 | -3.6 | -1.2 | -2.3 | -11 |
| Six1-Eya2 inh | -11 | 10 | 7 | -6 | -5 | -1 | 5 | 15 |

#33 CCOC(=O)c1[nH]c(=O)[nH]c1CN(Cc1ccco1)Cc1[nH]c(=O)[nH]c1C(=O)OCC
#34 O=C(COc1ccccc1)Nc1cc(C(F)(F)F)ccc1N1CCCC1
#35 O=C(Nc1cccc(S(=O)(=O)N2CCCCC2)c1)C1CCC1
#36 COc1ccc(OC)c2[nH]c(=O)c(CCNC(=O)C(=O)c3c(C)[nH]c4ccccc34)cc12
#37 Cc1ccc2c(c1)C(C)CC(C)(C)N2C(=O)CN1CCN(C)CC1 (stereo not given)

| compound no. | 33 | 34 | 35 | 36 | 37 |
| --- | --- | --- | --- | --- | --- |
| D2 PAM | -9 | -9 | -23 | -3 | -31 |
| TRPML1 ag | -0.2 | 0.5 | -0.8 | -0.8 | -0.3 |
| CtBP-E1A inh | 4 | 0 | 0 | -3 | · |
| PINK1 expr mod | 0.7% | 1.3% | 2.8% | 1.4% | -1.2% |
| D2 agonist | -1.0 | -5.5 | -4.2 | -0.5 | -5.0 |
| Six1-Eya2 inh | 1 | -10 | 16 | -9 | -1 |

Single entries from the list.
D2 PAM result of entry 33 : -9
TRPML1 ag result of entry 34 : 0.5
